Source: PubChem BioAssay
Sa growth 42C = inhibitors of Staphylococcus aureus growth at 42 °C. S. aureus RN4220 growth, OD600, 20 h; active compounds read low. 170,000 tested, 0.53% active. AID 720641. relative growth, % (no concentration beside the values);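 active = growth at 42 °C up to 50% and 20 or more points under that at 30 °C, or under 10% at both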;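 also: 300 nL library stock went into each well; scaled to the means of positive and negative controls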
HCMV UL50-53 inh = inhibitors of HCMV UL50-UL53 nuclear egress complex interaction; AID 1918969; HTRF UL50-UL53 interaction, normalized percent inhibition; 190,000 tested, 0.15% active; inhibition, % (concentration not given with the values);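 active = both replicates at 50% or more, plus weaker picks with an unusually low signal ratio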;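 also: stock transfer was 100 nL into about 20 µL; 0% = negative control wells and 100% = wells with untagged competitor protein; inactives centre near -12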
GIV-Gai inh = inhibitors of GIV GBA-motif binding to rat Galpha-i3; P08753; Galpha-i3/FITC-GIV peptide fluorescence polarization, 90 min; active compounds read low; scaled: aluminum fluoride 0%, vehicle 100%; percent of control (FP), % (concentration not given with the values); 210,000 tested, 0.42% active; AID 1224905;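 active = replicate mean at 85% of control or lower, very high polarization wells dropped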;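 also: wells of about 15 µL received 100 nL stock; the first replicate is given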
Target sequence (P08753 whole entry, looked up): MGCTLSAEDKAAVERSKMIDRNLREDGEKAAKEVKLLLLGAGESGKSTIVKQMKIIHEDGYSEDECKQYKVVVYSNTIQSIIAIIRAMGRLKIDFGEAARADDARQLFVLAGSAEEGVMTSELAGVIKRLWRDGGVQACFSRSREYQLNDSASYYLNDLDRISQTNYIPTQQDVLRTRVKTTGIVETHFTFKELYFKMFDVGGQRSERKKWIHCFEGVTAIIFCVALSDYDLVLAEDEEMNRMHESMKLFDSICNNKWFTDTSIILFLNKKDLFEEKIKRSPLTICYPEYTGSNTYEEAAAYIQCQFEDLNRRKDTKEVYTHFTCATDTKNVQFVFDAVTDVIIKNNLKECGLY
Sa growth 42C second temp = recorded beside Sa growth 42C, whose call it bears; relative growth, %; measured here: growth at 30 °C;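 optical density after 20 h as mean of two plates; 100% = untreated growth and lower means inhibition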
Active calls of the source: *; · = no result given; & = joins results of further samples.

structure | Sa growth 42C | Sa growth 42C second temp | HCMV UL50-53 inh | GIV-Gai inh
CSC1=NC2(CC(c3cccs3)c3ccc(O)c(O)c3O2)CC(C)(C)N1 (stereo not given) | 76 | 65 | -18 | ·
CCOC(=O)C1=C(CN2CCN(c3ccc(OC)cc3)CC2)NC(=O)NC1c1ccc(Cl)cc1 (stereo not given) | 105 | 85 | -26 | 106
CC(OC(=O)Cc1coc2cc3c(cc12)CCC3)C(=O)NCc1ccc2c(c1)OCO2 (stereo not given) | 90 | 92 | 2 | ·
CC1CCCCN1S(=O)(=O)c1ccc(NC(=O)CSc2nc3ccccc3o2)cc1 (stereo not given) | 114 | 84 | -7 | 103
CCCOc1ccc(C(=O)Nc2ccc(NC(=O)c3cccs3)cc2)cc1 | 109 | 83 | · | 97
CCOC(=O)COc1cccc(NC(=O)c2ccccc2Cl)c1 | 84 | 87 | -1 | 100
CCOC(=O)c1c(C)[nH]c(C)c1C(=O)CSC1=Nc2ccccc2C2CC=NN12 (stereo not given) | 68 | 71 | -14 | ·
COCCCNC(=O)C1CCN(c2cc(-c3ccc(F)cc3)ncn2)CC1 | · | · | -37 | 105
COc1ccc(CNC(=O)C2CCC(Cn3c(=O)[nH]c4ccsc4c3=O)CC2)cc1 (stereo not given) | 102 | 88 | -3 | 101
CCOC(=O)c1cc(-c2ccccc2)n(CCNC(=O)OC(C)(C)C)c1C | 106 | 84 | -15 | 108
COc1ccc(Cn2ccc3nc(C)c(C(=O)Nc4cccc(SC)c4)cc3c2=O)cc1 | 78 | 91 | · | 98
COc1ccccc1N(CC(=O)NCCSCc1ccc(Cl)cc1)S(C)(=O)=O | 116 | 100 | · | 105
CC(=O)Oc1ccccc1C(=O)N1C(C)CCCC1C (stereo not given) | 112 | 102 | -7 | 103
O=C(CCCN1CCSc2ccccc21)Nc1ccc(Br)cc1F | · | · | -20 | 105
O=C(Cc1coc(-c2ccc(F)cc2)n1)Nc1ccccc1 | 135 | 76 | · | 109
Nc1ccc(Oc2cccc3cccnc23)c(Cl)c1 | 102 | 88 | -44 | 106
CC1c2cccn2-c2sc3c(c2CN1C(=O)NC1CCCCC1)CCN(C)C3 (stereo not given) | · | · | -32 | 106
CSc1nnc2n(-c3cccc(C)c3)c(=O)c3c4c(sc3n12)CCCC4 | 108 | 96 | -8 | 101
S=c1c(Cl)c(Cl)cnn1Cc1ccccc1 | 60 | 43 | 4 | ·
Cc1cc(C)cc(NS(=O)(=O)c2ccc(-c3cc(C)no3)s2)c1 | 89 | 90 | · | 104

Looked up above:
Cc1cc(C)cc(NS(=O)(=O)c2ccc(-c3cc(C)no3)s2)c1 in GIV-Gai inh is entered as 104
O=C(CCCN1CCSc2ccccc21)Nc1ccc(Br)cc1F in GIV-Gai inh is entered as 105
CSc1nnc2n(-c3cccc(C)c3)c(=O)c3c4c(sc3n12)CCCC4 in Sa growth 42C second temp is entered as 96
COc1ccccc1N(CC(=O)NCCSCc1ccc(Cl)cc1)S(C)(=O)=O in GIV-Gai inh is entered as 105
CC(=O)Oc1ccccc1C(=O)N1C(C)CCCC1C (stereo not given) in GIV-Gai inh is entered as 103
Nc1ccc(Oc2cccc3cccnc23)c(Cl)c1 in GIV-Gai inh is entered as 106

3 compounds from above, sorted by length of the SMILES, falling:
structure | Sa growth 42C | Sa growth 42C second temp | HCMV UL50-53 inh | GIV-Gai inh
CSc1nnc2n(-c3cccc(C)c3)c(=O)c3c4c(sc3n12)CCCC4 | 108 | 96 | -8 | 101
Cc1cc(C)cc(NS(=O)(=O)c2ccc(-c3cc(C)no3)s2)c1 | 89 | 90 | · | 104
Nc1ccc(Oc2cccc3cccnc23)c(Cl)c1 | 102 | 88 | -44 | 106

The results go on:
structure | Sa growth 42C | Sa growth 42C second temp | HCMV UL50-53 inh | GIV-Gai inh
Cn1ccc2c(OCC(=O)Nc3ccc([N+](=O)[O-])cc3)cccc2c1=O | 111 | 96 | · | 103
COc1cc(NC(=O)CSC2=Nc3ccccc3N=C(c3ccc(F)cc3)C2)cc(OC)c1 | 88 | 89 | · | 105
CCC(=O)Nc1ccccc1CCc1nc2ccccc2[nH]1 | · | · | -20 | 105
COC(=O)CSc1nc(-c2ccccc2)c2cc(Cl)ccc2n1 | 99 | 103 | 5 | 102
Cc1ccc2nc(-c3cccnc3)c(Nc3ccc(C(C)C)cc3)n2c1 | 91 | 84 | -12 | 100
CCc1nnc2c3ccccc3nc(Nc3ccccc3OC)n12 | 102 | 91 | -2 | 109
O=C(/C=C/c1ccccc1)NC(=O)c1ccccc1O | 107 | 87 | -30 | ·
O=C(NC1CCN(Cc2ccccc2)CC1)C1CCN(c2ccnc(-c3ccc(F)cc3)n2)CC1 | · | · | -16 | 109
Cn1c(C(C#N)C(=O)Cc2cccc3ccccc23)nc2ccccc21 (stereo not given) | 114 | 81 | -34 | ·
O=C(c1ccc2c(c1)N(Cc1ccccc1)C(=O)c1ccccc1S2(=O)=O)N1CCC(Cc2ccccc2)CC1 | 102 | 95 | -26 | 106
O=c1/c(=C\c2cccs2)sc2nc3ccccc3n12 | 94 | 96 | 11 | 106
Cc1ccc(NC(=O)C(=O)NCC(c2cccnc2)N2CCN(c3ccccc3F)CC2)cc1Cl (stereo not given) | 92 | 91 | 8 | 107
C=CCNc1oc(-c2ccccc2)nc1C#N | 90 | 74 | · | 99
CCN1C(=O)c2cc(NS(=O)(=O)c3ccc(OC)c(C)c3)ccc2Oc2ccccc21 | · | · | 9 | 106
CC(c1ccccc1)n1c(CCCNC=O)nc2ccccc21 (stereo not given) | 90 | 107 | -8 | 100
Cc1ccc(NC(=O)c2oc3c(c2C)-c2[nH]ncc2CC3)c(Cl)c1 | 115 | 78 | -28 | 100
Cc1[nH]c(C(=O)N2CCC(CC(=O)N3CCN(c4ccccn4)CC3)CC2)c(C)c1C(=O)OC(C)C | · | · | -8 | 100
C=CCn1ccc2cc(S(=O)(=O)N3CCCN(S(=O)(=O)c4ccccc4CC)CC3)ccc21 | · | · | -2 | 107
CC(=O)c1ccc(N2CCN(C3C(=O)c4ccccc4N3C(C)=O)CC2)cc1 (stereo not given) | 85 | 91 | · | 98
CCOC(=O)c1c(NC(=O)Cn2nnc3ccccc32)sc2c1CCC(C)C2 (stereo not given) | 115 | 87 | -23 | 97

Next part
smiles,Sa growth 42C,Sa growth 42C second temp,HCMV UL50-53 inh,GIV-Gai inh
Nc1ncc(S(=O)(=O)NCc2ccc(Cl)cc2)cn1,94,82,·,105
CCc1ccc2[nH]cc(S(=O)(=O)c3ccc(Cl)cc3)c(=O)c2c1,·,·,-22,97
Cc1ccc(NC(=O)CSc2n[nH]c(=O)n2CC2CCCO2)cc1C (stereo not given),102,101,-5,·
COc1ccc(CN2C(=O)Cc3c2nc(N)c2c(N)nc(N4CCOCC4)c(C#N)c32)cc1,102,96,-1,·
COc1ccccc1OC(=O)C1CC(=O)N(c2ccc(Cl)cc2)C1 (stereo not given),104,88,-19,105
COC(=O)c1cccc(NC(=O)COC(=O)c2ccco2)c1,122,79,-1,107
CCOc1cc(Cn2c(-c3ccc(O)c(OCC)c3)nc3ccccc32)ccc1O,96,95,·,105
CC(C)n1c(SCC(=O)Nc2ccccc2Cl)nc2cc(Cl)ccc21,96,78,-35,98
Cc1ccsc1C(=O)Oc1cccc(F)c1,103,86,-19,·
O=C(O)C1CSC2c3ccccc3C(=O)N12 (stereo not given),92,95,-22,99
Cc1ccc(OCCn2c(C(O)c3ccccc3)nc3ccccc32)cc1 (stereo not given),105,85,·,96
N#Cc1c(N)n(-c2ccccc2)c2nc3ccccc3nc12,98,91,-34,·
Cc1ccnc(NC(c2cccnc2)c2cc(C)sc2NC(=O)c2ccccc2)c1 (stereo not given),·,·,-31,101
COc1cc(C(=O)c2cc(Cl)ccc2N)cc(OC)c1OC,88,104,-3,106
CCOC(=O)N1CCC(NC(=O)c2cnn(-c3ccc(C)cc3)c2C2CCN(C(=O)OC(C)(C)C)CC2)CC1,96,90,·,107
Cn1nnc2cc(C(=O)Nc3cccc(F)c3)ccc21,·,·,1,98
Cc1cc(/C=C(\C#N)C(=O)N2CCn3c2nc2ccccc23)c(C)n1-c1cccc(C(F)(F)F)c1,106,92,-16,·
Cc1nc2ccccn2c(=O)c1NC(=O)c1c(F)cccc1F,92,91,·,94&102
CCOc1ccccc1N(C)C(=O)Cn1cnc2onc(C)c2c1=O,·,·,-4,101
O=C(NC1CCCCC1)c1nc(-c2cccc(C(F)(F)F)c2)no1,101,100,-31,102
CCCS(=O)(=O)Nc1cc2oc3ccccc3c2cc1OC,119,98,-17,·
CCOC(=O)N1CCC(c2nc3ccccc3[nH]2)CC1,101,87,·,109
O=c1oc2cc(S(=O)(=O)NC3CC3)ccc2n1Cc1noc(C2CC2)n1,·,·,-25,111
COCCn1nnc2cc(S(=O)(=O)N3CCCC3C(=O)NC3CCCCC3)ccc21 (stereo not given),·,·,-7,111
Cc1ccccc1-n1c(=O)c(C#N)cc2c(=O)n3ccccc3nc21,87,87,-118,101
N#C/C(=C\C1CC2C=CC1C2)c1nc2ccccc2[nH]1 (stereo not given),77,92,-14,·
O=C(OCCCCN1C(=O)c2ccccc2C1=O)c1ccc(-n2cnnn2)cc1,90,92,-13,·
COc1ccc(-n2c(=O)c3sc4ccccc4c3n(CC(=O)N3CCCC3)c2=O)cc1,110,87,-53,108
CN(Cc1ccccc1)C(=O)COC(=O)c1c2c(nc3ccccc13)CCC2,88,89,-27,·
COc1cc2c(cc1OC)CN(C(=O)c1ccc(Cl)nc1)CC2,102,97,-31,·
Cc1ccccc1-n1c(SCc2ccc(Cl)cc2)nc2[nH]ncc2c1=O,39,39,·,102
CC(C)(C)c1ccccc1OCC(=O)Nc1cccc2ccccc12,94,94,·,108
O=C(Nc1ccc2c(c1)OCCO2)c1ccc(N2C(=O)CCS2(=O)=O)cc1,·,·,-18,99
CCCN(C(=O)Nc1ccc(OC)cc1)c1nc(-c2cccc(Br)c2)cs1,·,·,-4,108
Cc1csc2nc(COc3ccccc3NC(=O)c3ccco3)cc(=O)n12,97,86,5,106
COc1cc2c(cc1NC(=O)COC(=O)C1CC(=O)N(Cc3ccco3)C1)oc1ccccc12 (stereo not given),90,96,-2,·
CCN(CC)C(=O)c1cccc(NC(=O)c2cc(-c3ccco3)nc3ccccc23)c1,67,89,-38,·
CCOC(=O)Cn1c(CN2CCN(c3ccc(OC)cc3)CC2)nc2c1c(=O)[nH]c(=O)n2C,112,92,-19,107
Cc1ccc(SCC(=O)Nc2cccc3nsnc23)c(C)c1,80,93,-54,·
CC(OC(=O)c1cc(S(=O)(=O)N2CCOCC2)ccc1F)C(N)=O (stereo not given),93,90,-24,·
Cc1ccc(-c2nc3n(CC(=O)N4CCOCC4)c4c(c(=O)n3n2)CCC4)cc1,·,·,-13,106
O=C(NCCCn1ccnc1)c1ccccc1NS(=O)(=O)c1ccc(Cl)cc1,106,99,7,105
CCc1ccccc1NC(=O)Cn1cc2c(n1)CCC(C)C2 (stereo not given),105,91,-12,100
CCOC(=O)C1CCN(c2nc3ccccc3nc2Cl)CC1,99,85,-24,103
CC(=O)N1N=C(c2ccco2)CC1c1cc2cccc(C)c2nc1Cl (stereo not given),98,86,-13,101
CCN1C(=O)CCc2cc(NS(=O)(=O)c3ccc(C(C)(C)C)cc3)ccc21,·,·,-33,102
COc1ccc(NC(=O)N2CCN(C3CCCCC3)CC2)c(OC)c1,91,99,33,105
CCOC(=O)C1=C(CN2CCN(c3ccccc3F)CC2)NC(=O)NC1c1ccc(OC)cc1 (stereo not given),86,93,·,102
CCc1nn(CC(=O)NCCN(CC)CC)c(=O)c2cc3occc3n12,98,84,4,105
COc1cc(C2CC(C(F)(F)F)n3ncc(C(=O)Nc4cc(Oc5ccc(F)cc5)cc([N+](=O)[O-])c4)c3N2)cc(OC)c1OC (stereo not given),·,·,-17,96
O=C(NCC1(c2ccccc2)CCCC1)c1noc2c1COc1ccccc1-2,91,89,·,100
CCN(CC)CCNc1nc2c(c(=O)n(C)c(=O)n2C)n1C(C)c1ccccc1 (stereo not given),93,77,·,106
COc1cc2ncc3c(-c4ccccc4)nn(CC(=O)NC4CCCCC4)c3c2cc1OC,85,81,·,100
Cc1ccc(C(C#N)c2ccc(Cl)nn2)cc1 (stereo not given),·,·,8,103
CCN(CC)C(=O)c1ccc[n+](CC(N)=O)c1,91,99,-3,·
COc1ccc(-c2cn3nc(N4CCCC(C(=O)Nc5ccccc5F)C4)sc3n2)cc1 (stereo not given),127,88,·,108
